# KCNQ2 inh – KCNQ2 potassium channel inhibitors, primary screen, cell-based, CHO-K1, FluxOR thallium flux, B-score (AID 2156). 310,000 compounds, 1.1% hits. O88943. 20 min; hits give low values; only compounds with negative scores are shown here; some inactives read as strong as hits. B-score at 10 µM;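 active means fluorescence ratio B-score at most minus 3 library SDs, with starting brightness B-score within 2 library SDs, cut at about -5.5 in these data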
# Target sequence (O88943 whole entry, looked up): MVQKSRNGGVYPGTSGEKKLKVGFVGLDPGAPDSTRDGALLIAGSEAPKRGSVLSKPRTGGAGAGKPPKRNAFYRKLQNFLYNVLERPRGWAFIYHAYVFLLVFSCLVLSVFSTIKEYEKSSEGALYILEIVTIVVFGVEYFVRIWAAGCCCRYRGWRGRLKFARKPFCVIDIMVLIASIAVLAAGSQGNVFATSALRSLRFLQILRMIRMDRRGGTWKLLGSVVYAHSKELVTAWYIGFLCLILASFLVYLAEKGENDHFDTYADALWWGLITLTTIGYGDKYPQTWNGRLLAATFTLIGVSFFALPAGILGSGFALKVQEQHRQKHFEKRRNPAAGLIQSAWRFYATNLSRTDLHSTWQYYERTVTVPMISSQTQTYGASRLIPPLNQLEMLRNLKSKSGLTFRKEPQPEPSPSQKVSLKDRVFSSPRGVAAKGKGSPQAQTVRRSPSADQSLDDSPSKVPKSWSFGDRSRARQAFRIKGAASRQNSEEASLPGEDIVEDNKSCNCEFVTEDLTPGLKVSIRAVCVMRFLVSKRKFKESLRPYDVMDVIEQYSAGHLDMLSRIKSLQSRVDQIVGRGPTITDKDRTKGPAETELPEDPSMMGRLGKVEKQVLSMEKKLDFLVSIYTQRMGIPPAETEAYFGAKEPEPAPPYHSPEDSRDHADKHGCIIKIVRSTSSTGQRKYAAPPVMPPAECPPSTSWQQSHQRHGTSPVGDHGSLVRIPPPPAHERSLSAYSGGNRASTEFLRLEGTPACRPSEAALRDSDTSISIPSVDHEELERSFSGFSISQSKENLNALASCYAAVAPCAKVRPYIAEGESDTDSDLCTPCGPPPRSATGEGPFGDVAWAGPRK
# KCNQ2 inh baseline – also measured in KCNQ2 inh; calls as there; B-score; measured here: initial fluorescence intensity artifact check;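 brightness before thallium and not channel activity; 0 = typical well and far values either way flag optical interference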
# Active calls of the source: *; i = inactive.
KCNQ2 inh,KCNQ2 inh baseline,Compound
i,1.5,Cc1cc(C)cc(C(=O)N2CCN=C2c2ccccc2)c1
i,-0.79,O=C1CNC(=O)/C(=C\c2ccc(F)cc2)N1
i,1.5,Nc1c(-c2ccccc2)c(CN2CCOCC2)nn1-c1ccc(C(=O)O)cc1
i,0.15,O=C(NCCC1CCCCN1S(=O)(=O)c1ccccc1)C(=O)Nc1ccccc1 (configuration not stated)
i,-0.8,COc1ccc(NC(=O)NNC(=O)c2ccc3ccccc3c2O)c(OC)c1
i,-0.06,CSc1c(CC(=O)Nc2ccccc2)n(Cc2ccccc2)c2ccccc12
i,-0.85,CCn1cc(/C=N\NC(=O)COc2cccc(C)c2C)c(C)n1
-7.6*,-0.12*,CCN(CC(=O)NCc1cccs1)C(=O)c1ccc(-c2cccc(C(F)(F)F)c2)o1
i,1.4,CC(=O)c1cccc(Nc2nc(-c3ccccc3)nc3ccccc23)c1
i,0.48,CC(=O)CSc1nnc(-c2ccc3c(c2)OCO3)o1
i,0.8,Cc1ccc(/C=N/n2c(=O)c(C(C)(C)C)nn3cnnc23)cc1
i,1.4,Cc1ccccc1OCc1nnc(SCC(=O)NC2CCCCC2)o1
i,-0.29,CN(C)c1ccc(CN(C(=O)COc2ccccc2)C2CCS(=O)(=O)C2)cc1 (configuration not stated)
i,0.57,CC(C)CCn1c(Cl)nc2c1c(=O)n(C)c(=O)n2C
i,1.8,CCCCn1c(=O)[nH]c2c(oc3ccccc32)c1=O
i,-0.06,CCC(Oc1ccccc1)C(=O)O/N=C(\N)c1ccc(OC)c(OC)c1 (configuration not stated)
i,-0.99,O=C(O)c1ccccc1/C=N/NC(=S)NCc1ccccc1
i,1.1,OC(COCC1COc2ccccc2O1)CN1CCN(c2ccccn2)CC1 (configuration not stated)
i,-0.59,CC1CC(C)(C)NC(=S)N1CCCC(=O)Nc1ccc(F)c(F)c1 (configuration not stated)
i,1.3,O=C(NCCc1ccc(Cl)cc1)C1CCN(S(=O)(=O)N2CCCC2)CC1

# Full records from above. Values in the order: KCNQ2 inh, KCNQ2 inh baseline
# O=C1CNC(=O)/C(=C\c2ccc(F)cc2)N1 is listed as i, -0.79
# CC(=O)CSc1nnc(-c2ccc3c(c2)OCO3)o1 is listed as i, 0.48

# (cont.)
KCNQ2 inh,KCNQ2 inh baseline,Compound
i,-0.41,Cc1ccccc1OCC(=O)Nc1ccc2c(c1)n(C)c(=O)n2C
i,0.05,O=C(CCS(=O)(=O)c1ccc(F)cc1)N1CCOCC1
i,0.22,O=C(/C=C/c1cccc([N+](=O)[O-])c1)Nc1ccccc1N1CCOCC1
i,1.6,Cc1[nH]c2ccccc2c1C(=O)COC(=O)Cn1cnc2ccccc21
i,0.87,O=C1CC(C(=O)Nc2ccc(Br)cc2)S/C(=N\N=C\c2ccco2)N1 (configuration not stated)
i,0.42,Cc1ccc(Oc2cc(NN3CCCCC3)c([N+](=O)[O-])cc2[N+](=O)[O-])c(Cl)c1
i,-0.18,COc1ccc(C(=O)Nn2c(SCC(=O)c3ccccc3)nc3ccccc3c2=O)cc1
i,0.29,Cc1cc(Nc2ccc(Br)c(C)c2)n2nc(C)nc2n1
i,1.4,COCCn1c(=NC(=O)c2ccc(S(=O)(=O)N3CCc4ccccc4C3)cc2)sc2cc(OC)ccc21
i,0.91,Cc1ccccc1-n1nc2c(c1NC(=O)c1ccc3c(c1)OCO3)CS(=O)(=O)C2
i,0.04,COc1cc(/C=N/NC(=O)CC2(C)OCCO2)cc(Br)c1O
i,2.2,CNS(=O)(=O)c1cccc(C(=O)NCC(c2ccco2)N(C)C)c1 (configuration not stated)
i,-0.44,CC(C)CCOP(=O)(c1ccc(N(C)C)cc1)C(O)c1ccccc1F (configuration not stated)
i,-0.67,C=C(C)C1Cc2c(C)nn(-c3cccc4cccnc34)c2C1 (configuration not stated)
i,-1.3,CC(C)Cc1cc(C(=O)N2N=C(C(F)F)CC2(O)C(F)F)c2ccccc2n1 (configuration not stated)
i,-0.69,COCc1cc(C)nc2sc(C(=O)Nc3ccccc3Br)c(N)c12
i,-0.56,CCCc1cc(=O)n2[nH]c(NCc3ccccc3Cl)nc2n1
i,-0.49,COc1ccc(NC(=O)C2CC(c3ccccc3Cl)=NO2)cc1 (configuration not stated)
i,2.2,CC(C)c1nnc(NC(=O)CCC(=O)Nc2ccc(F)cc2)s1
i,1.2,Cc1cc(C(=O)NN=C2CCCCCCC2)c2ccccc2n1
i,-0.43,COC(=O)Nc1nc(C)c(C(=O)c2ccccc2)s1
i,-0.06,CCOc1ccc(NC(=O)CN(C)C(=O)/C=C/c2ccc(S(=O)(=O)N3CCCCCC3)cc2)cc1OCC
i,-0.09,N#CC1(NC(=O)CN2CCc3ccccc3C2)CCCC1
i,-1.5,COc1ccc2nc(NC(=O)Nc3cccc4ccccc34)sc2c1
i,-0.34,CCC(=O)Nc1c(-c2ccc(Cl)cc2)c(=O)c2ccccc2n1C
i,-1.3,N=C1C(c2nc3ccccc3s2)=C(O)CN1NC(=O)c1ccccc1[N+](=O)[O-]
i,-0.5,Cc1ccc(NC(=O)CN(C)CCOc2ccccc2)c([N+](=O)[O-])c1
i,1.7,CC(=O)c1ccc(NC(=O)CSc2ccc(-c3ccc4c(c3)OCO4)nn2)cc1
i,-0.6,Oc1ccc(O)cc1
i,0.28,COc1ccccc1NC(=O)C1CCCN(S(=O)(=O)c2ccc3c(c2)CC(C)N3C(C)=O)C1 (configuration not stated)
i,0.85,CCCC1(C)Nc2ccccc2-c2nc3ccccc3n21 (configuration not stated)
i,-1,O=c1oc(Nc2ccccc2Cl)nc2ccccc12
i,1.1,COc1ccc(CC(=O)Nc2nc3ccccc3[nH]2)cc1
i,-0.42,CCCCCCCCNC(=O)C(CCC(=O)OCc1ccccc1)NC(C)=O (configuration not stated)
i,1.1,O=C1Nc2ccc([N+](=O)[O-])cc2OC1CCN1CCN(Cc2ccccc2)CC1 (configuration not stated)
i,0.35,Cc1cccc(C(=O)OC2CCOC2=O)c1C (configuration not stated)
i,4,O=C(CSc1nc(-c2cccs2)cc(C(F)(F)F)n1)Nc1cc(OCC(F)(F)C(F)F)cc([N+](=O)[O-])c1
i,0.01,O=C(/C=C\c1cccs1)c1c(O)ccc2ccc(=O)oc12
i,1.8,COC(C[C@@H]1O[C@H]1[C@@H](O)COCc1ccccc1)OC
i,-0.18,Oc1ccccc1-c1nnc(SCCN2CCOCC2)n1Cc1ccccc1
i,-0.45,O=C(Cc1ccccc1Cl)Nc1ccc(S(=O)(=O)Nc2nccs2)cc1
i,0.02,COc1ccc2cc(C#N)c(N3CCN(C(=O)c4ccccc4C)CC3)nc2c1
i,0.03,CCn1c(C(=O)N2CCc3ccccc3C2)cc2sccc21
-7.4*,-0.05*,Cc1cc(CN2CCN(CCC#N)CC2)c(O)c(C2(C)CCCCC2)c1
i,4.1,O=C1CCC(C(=O)Nc2ccc(OC(F)F)cc2)N1 (configuration not stated)
i,0.18,Cc1ccc2nnn(Cc3cccc(C(C)(C)C)c3O)c2c1
i,0.7,COc1ccccc1N1CCN(S(=O)(=O)CCNC(=O)C2CC2)CC1
i,0.52,CCN(C(=O)c1coc(=O)c(Br)c1)c1ccc2c(c1)OCO2
i,-0.59,COCCCNC(=O)c1ccc(CN2CCc3ccccc3C2)cc1
i,0.23,O=C1CCC(C(=O)OC(C(=O)c2c[nH]c3ccccc23)c2ccccc2)=NN1 (configuration not stated)
i,0.44,Cc1nc(Nc2ccc3c(c2)OCO3)c2oc3ccccc3c2n1
i,-0.03,COc1ccc(-n2ncc(S(=O)(=O)c3ccccc3)c2-c2ccc(Cl)cc2)cc1
i,0.27,CCOc1ccc(C(=O)NC(=S)Nc2ccccc2N2CCCCC2)cc1[N+](=O)[O-]
i,-0.52,Cc1ccc(C(C)C)cc1NC(=O)Nc1ccc([N+](=O)[O-])cc1
i,0.76,Oc1ccc(N2CCN(Cc3c(-c4ccccc4)nc4ccccn34)CC2)cc1
i,0.09,O=C1CCC/C1=C/Nc1cccc(F)c1
-9.6*,-1.2*,CCOCCCn1c(SC(C(=O)Nc2cc(C)ccc2C)c2ccccc2)nnc1-c1ccc(Cl)cc1 (configuration not stated)
i,-0.32,O=C(Nc1ccccn1)c1ccc(CN(c2ccccc2)S(=O)(=O)c2ccccc2)cc1
i,0.87,O=C(CCCN1C(=O)/C(=C/c2ccc3c(c2)OCO3)SC1=S)Nc1cccc(C(=O)O)c1
i,0.19,O=C(CN(CCc1ccccc1)S(=O)(=O)c1ccc(Br)cc1)N/N=C/c1ccccc1C(=O)O

# 17 neighbouring records already listed, quoted:
KCNQ2 inh,KCNQ2 inh baseline,Compound
i,1.5,Cc1cc(C)cc(C(=O)N2CCN=C2c2ccccc2)c1
i,-0.79,O=C1CNC(=O)/C(=C\c2ccc(F)cc2)N1
i,1.5,Nc1c(-c2ccccc2)c(CN2CCOCC2)nn1-c1ccc(C(=O)O)cc1
i,0.15,O=C(NCCC1CCCCN1S(=O)(=O)c1ccccc1)C(=O)Nc1ccccc1 (configuration not stated)
i,-0.8,COc1ccc(NC(=O)NNC(=O)c2ccc3ccccc3c2O)c(OC)c1
i,-0.06,CSc1c(CC(=O)Nc2ccccc2)n(Cc2ccccc2)c2ccccc12
i,-0.85,CCn1cc(/C=N\NC(=O)COc2cccc(C)c2C)c(C)n1
-7.6*,-0.12*,CCN(CC(=O)NCc1cccs1)C(=O)c1ccc(-c2cccc(C(F)(F)F)c2)o1
i,1.4,CC(=O)c1cccc(Nc2nc(-c3ccccc3)nc3ccccc23)c1
i,0.48,CC(=O)CSc1nnc(-c2ccc3c(c2)OCO3)o1
i,0.8,Cc1ccc(/C=N/n2c(=O)c(C(C)(C)C)nn3cnnc23)cc1
i,1.4,Cc1ccccc1OCc1nnc(SCC(=O)NC2CCCCC2)o1
i,-0.29,CN(C)c1ccc(CN(C(=O)COc2ccccc2)C2CCS(=O)(=O)C2)cc1 (configuration not stated)
i,0.57,CC(C)CCn1c(Cl)nc2c1c(=O)n(C)c(=O)n2C
i,1.8,CCCCn1c(=O)[nH]c2c(oc3ccccc32)c1=O
i,-0.06,CCC(Oc1ccccc1)C(=O)O/N=C(\N)c1ccc(OC)c(OC)c1 (configuration not stated)
i,-0.99,O=C(O)c1ccccc1/C=N/NC(=S)NCc1ccccc1

# Next part.
KCNQ2 inh,KCNQ2 inh baseline,Compound
i,-1.5,O=C1/C(=C/c2ccc(F)cc2)SC(=S)N1CC(=O)N1CCCCC1c1cccnc1 (configuration not stated)
-5.7*,0.69*,COc1ccc(C(C(=O)NC2CCCC2)N(C(=O)c2snc(-c3ccc(F)cc3)c2N)c2ccc(OC)cc2)cc1 (configuration not stated)
i,2.7,COc1ccccc1NC(=O)CSc1ccc(-c2ccccn2)nn1
i,1.1,CC1=NN(c2ccc(C)cc2C)C(=O)C1C(c1ccccc1O)C1C(=O)N(c2ccc(C)cc2C)N=C1C (configuration not stated)
i,-1.6,c1ccc(CN2CCN(c3ncccn3)CC2)cc1
i,0.92,CC1CCN(C(=O)CSc2nncn2C)CC1
i,0.08,Cc1c(Cl)cccc1NC(=S)N(Cc1cccnc1)Cc1ccccc1Cl
i,0.42,CCN1C(=O)c2ccc(C(=O)NCc3ccccc3)cc2C1=O
i,0.69,Cc1ccc(Cl)cc1N1CCN(C(=O)COc2ccc(S(=O)(=O)NC(C)C)cc2)CC1
i,0.01,CC(C)(C)OC(=O)N[C@@H](Cc1ccccc1)c1nnc(SCC(=O)O)o1
i,2.9,CCCOc1ccc(CNC(=O)C2CCN(c3nnc(N4CCCC4=O)s3)CC2)cc1
i,2.3,COCc1ccc(C(=O)NC2CC(C)(C)Cc3c2cnn3-c2ccc(OC)cc2)o1 (configuration not stated)
i,-0.58,Cc1ccc(S(=O)(=O)N2CCN(C(=O)Cc3ccccc3)CC2)cc1
i,-1,CC1=C(C(=O)Nc2ccccc2)C(c2ccc(Cl)cc2)n2c(s/c(=C/c3cccc(OCC(=O)O)c3)c2=O)=N1 (configuration not stated)
i,0.01,O=C(OCC(=O)N1CCCc2ccccc21)c1cccc(S(=O)(=O)N2CCOCC2)c1
i,-0.05,CCN(CC)S(=O)(=O)c1ccc(N2CCOCC2)c(NC(=O)C2CCCC2)c1
i,3,CC(=O)N1CCOc2ccc(S(=O)(=O)NCc3ccc(F)cc3)cc21
i,-1.8,CCOC(=O)CCCn1ccc2cc(S(=O)(=O)N3CCCC3)ccc21
i,1.3,COCCN(C(=S)Nc1cccc(Cl)c1C)C(C)c1ccco1 (configuration not stated)
i,0.53,C=CCn1c(-c2ccccc2)nc(=S)c2c1CCCC2
i,-0.6,CCc1ccccc1NC(=O)c1ccc(NS(C)(=O)=O)cc1
i,-0.08,Cc1ccc(NC(=O)Cn2cc(S(=O)(=O)c3ccc(F)cc3)c(=O)c3cc(F)ccc32)cc1
i,2.3,CC(=O)N1N=C(c2ccc(Cl)cc2)OC1c1ccc(C(C)C)cc1 (configuration not stated)
i,-0.36,O=C(C/C=N\OCc1ccc([N+](=O)[O-])cc1)Nc1ccc(Br)cc1
i,0.9,COc1ccc(NCC(=O)N/N=C/C(C)c2ccccc2)cc1 (configuration not stated)
i,0.27,CC(C)(C)c1ccc(C(CC(=O)O)NC(=O)CCCc2ccccc2)cc1 (configuration not stated)
i,-0.76,COc1ccccc1CN1CCNC(=O)C1CC(=O)NC1Cc2ccccc2C1 (configuration not stated)
i,-1.7,Cc1ccc(S(=O)(=O)CC(=O)Nc2nc3ccc(S(N)(=O)=O)cc3s2)cc1
i,0.54,O=[N+]([O-])c1cccc(-c2nc(Oc3ccc(Cl)cc3)c3ccccc3n2)c1
i,-0.68,O=C(Cn1cc(C(F)(F)F)ccc1=O)NC(c1ccccc1)c1ccccc1
i,0.84,C=CCNC(=O)c1ccccc1NC(=O)c1ccccc1C
i,-0.03,CC(C)(C)Nc1nc(Cl)nc(N(C#N)CN2C(=O)c3ccccc3S2(=O)=O)n1
i,1,CCOC(=O)c1c(NC(=S)Nc2ccc(OC)cc2)sc2c1CCC2
i,0.24,O=C(Nc1ccc2c(c1)OCO2)C(c1ccccc1)N1CCC2(CC1)OCCO2 (configuration not stated)
i,0.89,Cc1ccc(CN2C3=NC(=O)CN3c3ccccc32)cc1
i,-0.53,COC(=O)c1ccc(C)c(NC(=O)CN2C(=O)c3ccccc3S2(=O)=O)c1

# Bioassay records as filed in PubChem.

# These rows are one share of the data; the hit share may differ from the screen's.
